Source: PubChem
GALR2 ag = GALR2 (human) receptor agonism; O43603; GALR2-expressing cells, agonist activation read-out; 0.48% of 140,000 active; activation, %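 (tested at 5 µM)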;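 active = above mean plus 3 SD of all compounds, about 5% in these data, not always enough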;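 also: 0% = vehicle buffer wells and 100% = reference agonist at full effect; tested in CHO reporter cells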
RGS16-Gao HTS = regulators of human RGS16-Galphao interaction; 0.38% of 220,000 active; O15492+P09471; binding response (% of control), % at 10 µM; bead-based flow cytometry RGS16-Galphao binding, fluorescence; actives lie on both sides; AID 1441;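 active = below 25% or above 175%, edge rows of some plates excepted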;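 also: Galphao activated by GDP with aluminum fluoride before binding; 100% = wells without compound and 0% = beads without RGS; some results beyond the cut were filed as inactive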
HSV replic up = increases HSV replication in cells; 0.005% of 220,000 active; HSV replication augmentation in cells, fold increase; maximum fold increase; AID 1956;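 active = peak rise of 1.5-fold or more in the series; tested in PC3 cells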;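 also: first round at 10 µM; read as green reporter fluorescence; hits show the peak of a series up to 25 µM; 1 = signal of infected wells without compound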
INS promoter inh = TRM-6 insulin promoter activity inhibition. TRM-6 cells (human fetal islet line), insulin promoter-eGFP reporter, imaging; reporter expression induced with tamoxifen. inhibition, % at 2 µM. 0.9% of 130,000 active. AID 1273;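 active = inhibition above the mean plus 3 SD, with well images judged a real hit on visual review, cut at about 60% in these data, passing the limit was not always enough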
PKD1 kinase inh = blocks activity of human protein kinase D1; Q15139; PKD1 kinase fluorescence polarization assay; inhibition, %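 (about 10 µM by stock and volumes)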; 0.056% of 200,000 active; AID 797;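 active = inhibition of 50% or more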;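 also: controls were vehicle for no effect and a reference inhibitor for full effect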
Target sequence (Q15139 whole entry, looked up): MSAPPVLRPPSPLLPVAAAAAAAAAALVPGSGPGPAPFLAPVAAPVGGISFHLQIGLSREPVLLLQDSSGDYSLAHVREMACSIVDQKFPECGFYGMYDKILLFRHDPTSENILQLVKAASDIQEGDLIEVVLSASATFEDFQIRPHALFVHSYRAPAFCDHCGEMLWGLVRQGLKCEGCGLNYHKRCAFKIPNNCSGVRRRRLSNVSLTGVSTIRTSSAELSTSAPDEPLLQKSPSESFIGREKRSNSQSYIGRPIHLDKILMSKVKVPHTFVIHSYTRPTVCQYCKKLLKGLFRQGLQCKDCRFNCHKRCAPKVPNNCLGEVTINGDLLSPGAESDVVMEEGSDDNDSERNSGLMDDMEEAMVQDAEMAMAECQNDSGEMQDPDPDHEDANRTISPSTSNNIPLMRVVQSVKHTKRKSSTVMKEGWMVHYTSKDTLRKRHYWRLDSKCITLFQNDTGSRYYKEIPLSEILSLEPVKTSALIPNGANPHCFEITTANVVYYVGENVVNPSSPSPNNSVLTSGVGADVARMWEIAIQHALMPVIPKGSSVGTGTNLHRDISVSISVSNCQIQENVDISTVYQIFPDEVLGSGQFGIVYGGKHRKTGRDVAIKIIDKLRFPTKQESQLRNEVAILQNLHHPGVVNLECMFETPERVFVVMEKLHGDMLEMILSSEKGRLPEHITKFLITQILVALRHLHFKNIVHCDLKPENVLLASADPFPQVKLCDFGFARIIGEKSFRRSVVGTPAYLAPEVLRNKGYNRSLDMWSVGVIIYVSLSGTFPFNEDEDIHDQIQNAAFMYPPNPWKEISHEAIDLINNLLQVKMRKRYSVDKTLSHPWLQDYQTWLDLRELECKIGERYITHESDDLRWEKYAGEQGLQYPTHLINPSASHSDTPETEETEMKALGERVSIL
INS promoter inh cell count = recorded beside INS promoter inh, whose call it bears; normalized cell count, %; measured here: cell count, toxicity; reference of the scale not given here;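 cells exposed to compound for 48 h; stained nuclei by imaging scaled within each plate; lower means fewer cells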
HSV replic up primary fold = second read-out of HSV replic up, no call of its own (marks repeat the call); fold increase; compound at 10 µM; measured here: primary screen fold increase 10 uM; tested in PC3 cells;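 GFP signal in the first replicate; 1 = infected wells without compound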
* = called active by the depositor; i = inactive; . = not tested or not shown. The order is random; about 1.3% have a hit in one of these screens.

SMILES | GALR2 ag | RGS16-Gao HTS | HSV replic up | HSV replic up primary fold | INS promoter inh | INS promoter inh cell count | PKD1 kinase inh
O=C(/C=C/c1ccc(F)cc1)c1ccc(N2CCOCC2)cc1 | . | 104 | i | 0.97 | . | . | .
COC(=O)C(C#N)C(c1cccnc1)c1c(C)[nH][nH]c1=O (centres undefined) | -1.8 | 94 | i | 0.94 | -22 | 97 | -6
CC(=O)NC1=NN(C(C)=O)C(c2ccccc2)S1 (centres undefined) | . | 106 | i | 0.97 | . | . | -1
c1ccc(N2CCN(c3nc4cc5c(cc4s3)OCO5)CC2)cc1 | -0.9 | 89 | i | 0.95 | . | . | -9
CC(C)(C)NC(=O)c1cc(C(C)(C)C)c(O)c(C(C)(C)C)c1 | 3.0 | 112 | i | 1.1 | -3 | 53 | 3
CCCNC(=S)Nc1ccc(CC(=O)OC)cc1 | 0.1 | 105 | i | 0.86 | . | . | -3
CCN(CC)c1ccc(N2C(=O)/C(=C/c3ccccn3)SC2=S)cc1 | . | 103 | i | 0.81 | . | . | .
N#Cc1c2n(c3c(N)ncnc13)CCCCC2 | . | 100 | i | 1.2 | . | . | .
O=C(C1CCN(S(=O)(=O)c2cccnc2)CC1)N1CCN(c2ccccc2Cl)CC1 | -1.9 | 102 | i | 0.86 | -28 | 96 | -7
Nc1nnc(SCc2cccc(C(F)(F)F)c2)s1 | -1.2 | 96 | i | 0.86 | . | . | 0
CCOc1cc(C=O)ccc1OCCCN1C(=O)NC(C)(C)C1=O | -2.0 | 113 | i | 0.92 | -423 | 63 | 0
CCOC(=O)Cn1nc(/C=C/c2ccc(C)cc2)ccc1=O | -1.4 | 66 | i | 0.98 | 19 | 87 | 27
COC(=O)c1c(NC(=O)CN(c2ccc(C)c(C)c2)S(C)(=O)=O)sc2c1CCCC2 | 0.1 | 102 | i | 0.91 | 12 | 125 | 0
CC1(C)CC(=O)C(N=Nc2cc(S(=O)(=O)N3CCOCC3)ccc2Cl)=C(O)C1 | . | 99 | i | 0.98 | . | . | .
O=[N+]([O-])c1cccc(C(=Nc2ccccc2Cl)NO)c1 | -3.1 | -38 | i | 0.94 | -37 | 100 | -2
Cn1nc(C(=O)Nc2ccc(S(=O)(=O)N3CCCCC3)cc2)c2ccccc2c1=O | . | 98 | i | 0.99 | 36 | 50 | -5
CCOC(=O)N1CCC(NC(=O)c2cnn3c2NC(c2ccco2)CC3C(F)(F)F)CC1 (centres undefined) | 1.1 | 97 | i | 1.2 | 3 | 62 | 4
COc1ccc(NS(=O)(=O)c2ccc(N/N=C/c3ccc(N4CCOCC4)cc3)c([N+](=O)[O-])c2)cc1 | -1.9 | 91 | i | 0.71 | 54 | 142 | -3
CCN(CC)c1ccc(/C=N/NC(=O)Nc2nonc2N)cc1 | -0.8 | 107 | i | 0.82 | -31 | 128 | 13
COc1ccc(C2C(C(=O)N3CCN(C)CC3)c3ccccc3C(=O)N2C2CCCCC2)cc1 (centres undefined) | -1.2 | 107 | i | 0.98 | . | . | -1
COC(=O)c1sc(NC(=O)CCCn2nc([N+](=O)[O-])cc2C)c(C(=O)OC)c1C | -0.2 | 105 | . | . | . | . | 1
CCOc1ccc(-n2c(C)nc3cc(C(=O)NCCN4CCOCC4)ccc32)cc1 | -1.8 | 100 | i | 1 | -37 | 48 | -3
C/C(=N\NC(=S)NC(C)C)c1ccc2c(c1)OCCO2 | -1.2 | 77 | i | 0.88 | -33 | 105 | -1
S=C(NCc1ccco1)Nc1ccc(Oc2ccc(Cl)cc2)cc1 | . | -20* | i | 1 | . | . | .
CCCCn1c(=N)n(CC(=O)c2ccc([N+](=O)[O-])cc2)c2ccccc21 | . | 100 | i | 0.94 | . | . | 2
O=S(=O)(Cc1ccccc1)N1CCN(Cc2ccccc2)CC1 | -2.3 | 101 | i | 0.66 | 6 | 142 | -6
O=C(COc1ccccc1Cl)NCCc1ccc2c(c1)OCCO2 | -3.1 | 108 | i | 0.99 | . | . | -25
O=C(Nc1cc(Cl)ccc1N1CCOCC1)c1cccnc1Cl | . | 101 | i | 1.2 | . | . | .
CCOC(=O)N1CCN(CCC(=O)Nc2ccccc2OC)CC1 | -0.8 | . | i | 1 | -31 | 76 | -3
Cn1c(SCCOc2ccccc2Cl)nnc1-c1cccs1 | -2.3 | 72 | i | 0.8 | -7 | 139 | -2
COc1ccc(-c2nnc(SCCC(=O)O)n2-c2ccccc2)cc1OC | -1.5 | 111 | i | 1.1 | -7 | 147 | 4
O=c1[nH]c(CN2CCN(Cc3ccccc3)CC2)nc2scc(-c3ccccc3)c12 | . | 107 | i | 0.93 | . | . | .
Cc1ccc(NC(=S)NCC(C)C)cc1 | 0.1 | 86 | i | 1 | 25 | 73 | -3
CCOC(=O)c1ccc2c(c1)C1C=CCC1C(C(=O)O)N2 (centres undefined) | -1.1 | 91 | i | 0.96 | . | . | 12
Cc1cc(C)n(-c2ccc(C(C)C)cc2)c(=O)c1C#N | . | 99 | i | 1 | 32 | 106 | -6
c1ccc(C(Cc2nc(-c3cccnc3)no2)c2ccccc2)cc1 | -1.8 | 93 | i | 0.96 | -15 | 112 | -9
CCC(=NCCN1CCNCC1)C1=C(O)CC(C)(C)CC1=O | -3.4 | 102 | i | 0.98 | . | . | -12
COc1ccc(/C(N)=N/OC(=O)c2ccc3c(c2)OCO3)cc1 | 0.2 | 105 | i | 0.97 | . | . | 8
N#Cc1c(N)nc2c3c(sc(=N)c2c1N)NC(=O)CC3c1ccccc1Cl (centres undefined) | -3.8 | 102 | i | 0.59 | -9 | 94 | -14
CCOc1cc(N2CCOCC2)c(OCC)cc1NC(=O)Cc1cn2ccsc2n1 | -0.2 | 94 | i | 0.8 | . | . | -3
Cc1cccc(C)c1N1CCN(S(=O)(=O)c2ccc(F)cc2)CC1 | -2.5 | 99 | i | 1 | -462 | 50 | -6
Cc1cc(Cl)ccc1Oc1nc(-c2ccccc2)ncc1S(C)(=O)=O | -1.0 | 103 | i | 0.67 | 33 | 98 | -6
CCc1cccc(C)c1NC(=O)Cn1c(NCCO)nc2ccccc21 | -0.3 | 100 | i | 0.97 | . | . | 2
CCO[C@H]1OC(C(=O)O)=C[C@@H](c2ccc(C(F)(F)F)cc2)[C@@H]1CCCO | . | 94 | i | 0.94 | . | . | -9
CCOc1ccccc1OCC(=O)NNC(=S)NC1CCCCC1 | . | 100 | i | 1.1 | -26 | 116 | -6
Nc1ncnc(Nc2ccccc2Cl)n1 | . | 101 | i | 1 | . | . | .
Cc1[nH]n(-c2ccccc2)c(=O)c1C(c1ccc(C(=O)O)cc1)c1c(C)[nH]n(-c2ccccc2)c1=O | 0.5 | 97 | i | 0.88 | -27 | 134 | -10
CC1CN(C(=O)/C(C#N)=C2\N=C(NC(=O)c3ccc(F)cc3)c3ccccc32)CC(C)O1 (centres undefined) | . | 99 | i | 0.97 | . | . | .
Cc1ccc(C(=O)CSc2nnc(-c3snnc3C)n2C2CC2)cc1 | . | 98 | i | 1.3 | . | . | .
COc1cc(S(=O)(=O)N2CCOCC2)ccc1NC(=O)COc1ccc(N(C)S(=O)(=O)c2ccc(C)cc2)cc1 | . | 100 | i | 0.96 | . | . | 7

(next part)
SMILES | GALR2 ag | RGS16-Gao HTS | HSV replic up | HSV replic up primary fold | INS promoter inh | INS promoter inh cell count | PKD1 kinase inh
CCSc1ccccc1C(=O)Nc1cccc(OC)c1 | 0.7 | 78 | i | 0.81 | -3 | 201 | -14
Cc1ccc(Cn2cc(C(=O)c3ccc(F)cc3)c(=O)c3cc4c(cc32)OCCO4)cc1 | 0.7 | 98 | . | . | -65 | 139 | 4
COCc1cc(=O)n2[nH]c(C)cc2n1 | -0.9 | 94 | i | 1 | . | . | -1
Cc1ccc([N+](=O)[O-])cc1NC(=O)C1CCN(S(C)(=O)=O)CC1 | -1.1 | 95 | i | 1 | 14 | 116 | 11
O=C(O)C1=C[C@H](c2ccccc2)C[C@H](OCc2ccc(CO)cc2)O1 | . | 105 | i | 1.1 | . | . | 3
NC(=O)C1CCN(C(=O)c2ccc(Oc3ccccc3)cc2)CC1 | 0.5 | 99 | i | 0.95 | -11 | 85 | -2
Cc1ccc(CNC(=O)C2(NC(=O)Nc3ccc(C)cc3)CCCCC2)cc1 | -2.2 | 104 | i | 0.78 | -61 | 74 | 5
Cn1c(=O)oc2cc(S(=O)(=O)N3CCC(C(=O)N4CCN(c5ccccc5)CC4)CC3)ccc21 | -1.1 | 97 | i | 0.94 | . | . | -13
OCC(O)CSc1nc(-c2ccccc2)nc2c1CCC2 (centres undefined) | -1.2 | 98 | i | 0.95 | -28 | 126 | 9
COCC(C)NS(=O)(=O)c1ccc(NC(=O)c2ccccn2)cc1 (centres undefined) | . | 98 | i | 0.99 | . | . | .
CC/C(=N\NC(=O)Nc1ccccc1)c1ccccc1 | -1.3 | 52 | i | 1.1 | 6 | 92 | 8
CCN(CC)C(=O)CSc1nnc(CCNC(=O)OC(C)(C)C)o1 | -1.1 | 93 | i | 0.92 | 12 | 72 | 5
O=S(=O)(Nc1nccs1)c1ccc(NS(=O)(=O)c2cccs2)cc1 | -2.8 | 109 | i | 1.3 | 3 | 139 | -4
O=C(CSc1nnc(-c2ccccn2)n1Cc1ccccc1)NC1CCCC1 | -1.1 | 134 | . | . | . | . | 0
Cc1nn(CC(=O)NCCN2CCOCC2)c(=O)c2ccccc12 | -3.2 | 101 | i | 0.94 | -79 | 141 | -12
Cc1cc(/C=C2/C(=O)N(C)C(=S)N2C)c(C)n1C1CC1 | -1.6 | 89 | i | 1.1 | -238 | 87 | 1
NC(=Nc1ccc(N)cc1)C(N)=Nc1ccc(N)cc1 | . | 106 | i | 0.96 | . | . | .
Cc1cccc(Nc2nnc(C)c(=O)n2N)c1 | -3.2 | 110 | i | 0.88 | 25 | 89 | -3
COCCNc1cc(C)nc2cc(-c3ccc(C)cc3)nn12 | . | 102 | i | 0.83 | -7 | 179 | 7
c1ccc2c(c1)ncn2CCCCOc1ccc2c(c1)CCC2 | -1.5 | 103 | i | 0.8 | -31 | 63 | 1

By substructure: the compounds so far with a Cl atom (ten)
SMILES | GALR2 ag | RGS16-Gao HTS | HSV replic up | HSV replic up primary fold | INS promoter inh | INS promoter inh cell count | PKD1 kinase inh
O=C(C1CCN(S(=O)(=O)c2cccnc2)CC1)N1CCN(c2ccccc2Cl)CC1 | -1.9 | 102 | i | 0.86 | -28 | 96 | -7
CC1(C)CC(=O)C(N=Nc2cc(S(=O)(=O)N3CCOCC3)ccc2Cl)=C(O)C1 | . | 99 | i | 0.98 | . | . | .
O=[N+]([O-])c1cccc(C(=Nc2ccccc2Cl)NO)c1 | -3.1 | -38 | i | 0.94 | -37 | 100 | -2
S=C(NCc1ccco1)Nc1ccc(Oc2ccc(Cl)cc2)cc1 | . | -20* | i | 1 | . | . | .
O=C(COc1ccccc1Cl)NCCc1ccc2c(c1)OCCO2 | -3.1 | 108 | i | 0.99 | . | . | -25
O=C(Nc1cc(Cl)ccc1N1CCOCC1)c1cccnc1Cl | . | 101 | i | 1.2 | . | . | .
Cn1c(SCCOc2ccccc2Cl)nnc1-c1cccs1 | -2.3 | 72 | i | 0.8 | -7 | 139 | -2
N#Cc1c(N)nc2c3c(sc(=N)c2c1N)NC(=O)CC3c1ccccc1Cl (centres undefined) | -3.8 | 102 | i | 0.59 | -9 | 94 | -14
Cc1cc(Cl)ccc1Oc1nc(-c2ccccc2)ncc1S(C)(=O)=O | -1.0 | 103 | i | 0.67 | 33 | 98 | -6
Nc1ncnc(Nc2ccccc2Cl)n1 | . | 101 | i | 1 | . | . | .
